GIRK2 act = activators of human GIRK2 potassium channels. AID 1259325. HEK293-GIRK2 thallium flux, Thallos fluorescence. calls only for hits at 25 µM. 63,000 compounds, 0.05% hits. P48051;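 active means among the strongest 0.2% of first-round signals and kept after retests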;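 further: first round at about 10 µM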
Target sequence (P48051 whole entry, looked up): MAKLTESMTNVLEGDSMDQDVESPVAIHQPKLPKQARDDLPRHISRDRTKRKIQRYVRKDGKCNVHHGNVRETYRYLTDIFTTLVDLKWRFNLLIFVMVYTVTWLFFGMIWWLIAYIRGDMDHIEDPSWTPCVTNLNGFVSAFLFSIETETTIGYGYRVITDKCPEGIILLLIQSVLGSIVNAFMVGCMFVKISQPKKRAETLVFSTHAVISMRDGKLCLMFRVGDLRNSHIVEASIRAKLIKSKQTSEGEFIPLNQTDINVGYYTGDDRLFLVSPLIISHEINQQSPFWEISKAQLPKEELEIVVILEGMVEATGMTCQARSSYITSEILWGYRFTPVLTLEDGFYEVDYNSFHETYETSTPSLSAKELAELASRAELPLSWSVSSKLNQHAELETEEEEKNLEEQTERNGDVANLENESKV
Calls only; i = inactive.

smiles,GIRK2 act
COc1ccc(S(=O)(=O)Nc2ccc3c(c2)CCCN3S(=O)(=O)c2ccc(F)cc2)cc1,i
CCOC(=O)Cn1c(=O)c2c(nc3n(-c4ccccc4C)c(-c4ccccc4)cn23)n(C)c1=O,i
O=c1c2scc(-c3cccc(F)c3)c2ncn1Cc1ccccc1Cl,i
O=C(CS(=O)(=O)Cc1ccccc1)N(CC1CCCO1)c1nc2c(F)cccc2s1 (centres undefined),i
COc1ccc(-c2noc(-c3cc(=O)[nH]c4ccccc34)n2)cc1,i
CCOC(=O)c1c(NC(=O)c2ccc(-n3cnnn3)cc2)sc(C)c1C,i
COc1ccc2nc(N(CCN3CCOCC3)C(=O)c3ccco3)sc2c1,i
CN(Cc1ccccc1)S(=O)(=O)CCNC(=O)c1ccc2c(c1)OCO2,i
CCSc1ccccc1C(=O)NCC#CCN1CCOCC1,i
COc1ccc(N2CC(C)Cn3c2nc2c3c(=O)n(CC(C)=O)c(=O)n2C)cc1 (centres undefined),i
CC/C=C\CC(O)/C=C/C1=C(C/C=C\CCCC(=O)O)C(=O)CC1 (centres undefined),i
O=C(Cc1csc(-n2cccc2)n1)NCc1nc(-c2ccccc2)no1,i
Cc1c(C)n2c3c(=O)n(C)c(=O)n(C)c3nc2n1CCN1CCN(c2ccc(F)cc2)CC1,i
O=C(NCc1cccs1)C1CCN(c2ccc(-c3ccco3)nn2)CC1,i
O=C(O)c1ccc(Nc2nc3ccccc3nc2NS(=O)(=O)c2cccs2)cc1,i
CCCOc1ccc(CNC(=O)c2nnn(-c3ccc(F)cc3)c2-c2ccncc2)cc1,i
Cn1nc(C2CCN(CC(=O)Nc3nc4ccccc4s3)CC2)n(-c2ccccc2)c1=O,i
O=C(C(c1ccccc1)n1cccc1)N1CCn2c1nc1ccccc12 (centres undefined),i
COc1ccc(CC(C)(O)CNC(=O)C(=O)Nc2ccccc2Cl)cc1 (centres undefined),i
COc1ccc(-c2cc(N3CCc4ccccc43)ncn2)cc1,i
CS(=O)(=O)C1CCN(C(=O)c2ccccn2)CC1,i
COC(=O)c1ccc(C2C(S(=O)(=O)c3ccc(C)cc3)=C(O)C(=O)N2Cc2ccc(F)cc2)cc1 (centres undefined),i
CC(=O)N1CCN(C(=O)C2CSCCC(=O)N2)CC1 (centres undefined),i
CCN(CCCNC(=O)Cn1cnc2c([nH]c3ccc(C)cc32)c1=O)c1ccccc1,i
COc1ccccc1OCC#CCNC(=O)c1cnccn1,i
COc1ccc(SCCCC(=O)Nc2nccs2)cc1,i
COc1ccccc1-c1ccc(N2CCC(C(=O)Nc3nc4ccccc4[nH]3)CC2)nn1,i
Cc1nc(NCCNC(=O)Cc2c[nH]c3ccccc23)cc(-n2ccnc2C)n1,i
CNC(=O)C1CCC(Cn2c(=O)c3sccc3n(CC(=O)N3CCC(C)CC3)c2=O)CC1 (centres undefined),i
O=C(c1ccsc1)N1CCN(CCNC(=O)C2(c3ccccc3)CCOCC2)CC1,i
CCOc1cccc(CNC(=O)C2CCN(c3ncccc3S(=O)(=O)N3CCOCC3)CC2)c1,i
N#Cc1ccc(Cl)cc1NC(=O)C(=O)NCC(c1ccc(F)cc1)N1CCOCC1 (centres undefined),i
CNC(=O)CSc1ncc(-c2cccc([N+](=O)[O-])c2)n1-c1ccc(F)cc1,i
O=C(NCCC(O)c1cccs1)Nc1cccs1 (centres undefined),i
CCOC(=O)CN1CCN(c2nc3c(c(=O)[nH]c(=O)n3C)n2Cc2ccc(C)cc2)CC1,i
COc1ccc(-c2cc(-c3ccco3)c3c(N)c(C(N)=O)sc3n2)cc1,i
CC(=O)c1sc(NC(=O)C2CCN(S(=O)(=O)c3ccc(F)cc3)CC2)nc1C,i
CS(=O)(=O)NCC1CCC(C(=O)NCc2nc(-c3ccccc3)no2)CC1 (centres undefined),i
CS(=O)(=O)c1ccccc1C(=O)Nc1nc(-c2cc3ccccc3o2)cs1,i
COc1cccc(Oc2nccn3c(=O)n(CC(=O)Nc4ccccc4C(F)(F)F)nc23)c1,i
CCOc1ccccc1NC(=O)Cn1nc2ccc(-c3ccccc3)nn2c1=O,i
O=C(CSc1nnnn1-c1ccccc1)Nc1nsc(-c2ccc(Cl)cc2)n1,i
COc1ccc(S(=O)(=O)Cc2nc(-c3ccc(C)cc3)no2)cc1,i
O=C(NCC1CCN(S(=O)(=O)c2cccnc2)CC1)c1ccco1,i
Cc1ccc(C2NC(=O)N(CC(=O)Nc3c(C)cc(C)cc3C)C3=C2C(=O)OC3)cc1 (centres undefined),i
COc1ccc(N2C(=O)C3N=NN(CC(=O)Nc4ccccc4)C3C2=O)cc1Cl (centres undefined),i
CCOC(=O)c1cc2c(-c3ccccc3)nc3ncnn3c2n(C)c1=O,i
CCn1cc(C(=O)NCCOC)c(S(=O)(=O)N2CCN(c3cccc(Cl)c3)CC2)n1,i
N#Cc1ccccc1NC(=O)c1ccc(N2C(=O)c3ccccc3C2=O)cc1,i
COc1ccc(NC(=O)Cn2nc3c(Oc4ccccc4)nccn3c2=O)cc1OC,i
CCN(CC)C(=O)c1cnc2nc(C)ccc2c1Nc1ccc(C(F)(F)F)cc1,i
NC(=O)c1ccc(NC(=O)C2CSCCC(=O)N2)cc1 (centres undefined),i
CCOC(=O)c1sc(NC(=O)c2c(C)cc(C)cc2C)nc1C,i
C=C1CSc2nc(=O)c3cn[nH]c3n21,i
COc1ccc(S(=O)(=O)NCCn2nc(-c3ccc(Cl)cc3)ccc2=O)cc1,i
COC(=O)c1ccc(OC)c(CN2CC(=O)N(Cc3ccc(F)cc3)c3ccccc3S2(=O)=O)c1,i

Further entries:
smiles,GIRK2 act
COCCCNc1nc2ccccc2nc1NS(=O)(=O)c1cccc(Cl)c1,i
CCCCNc1cc(C(=O)O)cc(S(N)(=O)=O)c1Oc1ccccc1,i
COc1ccccc1-c1nnc(C2CCN(C(=O)Nc3ccccc3)CC2)s1,i
Cc1noc(C)c1CSc1nnc2scc(-c3ccc(Cl)cc3)n12,i
COc1ccccc1OCC(=O)NCc1ccc(C(O)c2cccs2)s1 (centres undefined),i
CN(CC(=O)NC1CC(O)C(CO)C1)S(C)(=O)=O (centres undefined),i
CCOCCn1c(C2CC(=O)N(Cc3ccccc3)C2)nc2ccccc21 (centres undefined),i
O=C(Nc1ccc(S(=O)(=O)c2ccccc2)cc1)c1cccc(S(=O)(=O)N2CCOCC2)c1,i

Brought forward from above: 2 compounds; new compounds follow.
smiles,GIRK2 act
CCOCCn1c(C2CC(=O)N(Cc3ccccc3)C2)nc2ccccc21 (centres undefined),i
O=C(Nc1ccc(S(=O)(=O)c2ccccc2)cc1)c1cccc(S(=O)(=O)N2CCOCC2)c1,i
Cc1cnnn1-c1ccc(C(=O)Nc2cc(Cl)ccc2Cl)cc1,i
O=C(Cc1c[nH]c2ccccc12)N1CCCC(c2nnc(-c3ccccc3F)s2)C1 (centres undefined),i
COc1ccc(S(=O)(=O)C(C#N)c2nc3ccccc3nc2N2CCC(C)CC2)cc1 (centres undefined),i
O=C(CSc1nnc(-c2cccc(S(=O)(=O)N3CCCCC3)c2)o1)c1ccc(Cl)cc1,i
CCOC(=O)c1ccc(NC(=O)COc2cc(C)nc(N3CCC(C)CC3)n2)cc1,i
COc1ccc(C(=O)Nc2cc(C)nn2-c2nc3c(cnn3-c3ccc(F)cc3)c(=O)[nH]2)cc1OC,i
O=C(Nc1cccc(Br)c1)c1ccc(=O)n(Cc2cccc([N+](=O)[O-])c2)c1,i
CCCn1c(=O)c2c(nc3n2CC(C(C)(C)C)=NN3)n(C)c1=O,i

Taken from the entries so far, 16 compounds:
smiles,GIRK2 act
COCCCNc1nc2ccccc2nc1NS(=O)(=O)c1cccc(Cl)c1,i
CCCCNc1cc(C(=O)O)cc(S(N)(=O)=O)c1Oc1ccccc1,i
COc1ccccc1-c1nnc(C2CCN(C(=O)Nc3ccccc3)CC2)s1,i
Cc1noc(C)c1CSc1nnc2scc(-c3ccc(Cl)cc3)n12,i
COc1ccccc1OCC(=O)NCc1ccc(C(O)c2cccs2)s1 (centres undefined),i
CN(CC(=O)NC1CC(O)C(CO)C1)S(C)(=O)=O (centres undefined),i
CCOCCn1c(C2CC(=O)N(Cc3ccccc3)C2)nc2ccccc21 (centres undefined),i
O=C(Nc1ccc(S(=O)(=O)c2ccccc2)cc1)c1cccc(S(=O)(=O)N2CCOCC2)c1,i
Cc1cnnn1-c1ccc(C(=O)Nc2cc(Cl)ccc2Cl)cc1,i
O=C(Cc1c[nH]c2ccccc12)N1CCCC(c2nnc(-c3ccccc3F)s2)C1 (centres undefined),i
COc1ccc(S(=O)(=O)C(C#N)c2nc3ccccc3nc2N2CCC(C)CC2)cc1 (centres undefined),i
O=C(CSc1nnc(-c2cccc(S(=O)(=O)N3CCCCC3)c2)o1)c1ccc(Cl)cc1,i
CCOC(=O)c1ccc(NC(=O)COc2cc(C)nc(N3CCC(C)CC3)n2)cc1,i
COc1ccc(C(=O)Nc2cc(C)nn2-c2nc3c(cnn3-c3ccc(F)cc3)c(=O)[nH]2)cc1OC,i
O=C(Nc1cccc(Br)c1)c1ccc(=O)n(Cc2cccc([N+](=O)[O-])c2)c1,i
CCCn1c(=O)c2c(nc3n2CC(C(C)(C)C)=NN3)n(C)c1=O,i

(listing goes on)
smiles,GIRK2 act
Cc1cccc(C)c1NC(=O)CSc1nc2ccccc2n2c(C)nnc12,i
CCc1cccc(NC(=O)Cn2cc(-c3nc(-c4ccc(OC)cc4)no3)ccc2=O)c1,i
COc1ccc(-n2nnc(C(=O)Nc3ccc(-n4cnnn4)cc3)n2)cc1,i
COc1ccc(CC(=O)N2CCN(c3cc(Nc4cc(C)ccn4)nc(C)n3)CC2)cc1,i
O=C(Nc1nc2c(s1)CN(C(=O)c1cc(-c3ccco3)on1)CC2)c1cccs1,i
COc1nn(C)cc1C(=O)NCCC1CCCCN1S(=O)(=O)c1cccs1 (centres undefined),i
Cc1nc(-c2cccs2)sc1CNC(=O)c1cc(-c2ccco2)[nH]n1,i
Cc1nc(-c2cccs2)sc1CNC(=O)c1c[nH]c(=O)n(-c2ccc(F)cc2)c1=O,i
Cc1ccc(-n2cc(C(=O)NCCc3ccccc3)nn2)cc1,i
Cc1ccc(NC(=O)C(=O)NCCC(O)c2cccc3ccccc23)cc1C (centres undefined),i
Cc1ccc(C(=O)NCCCS(=O)(=O)N2CCN(c3ncccn3)CC2)cc1C,i
COc1ccc(NC(=O)c2cn(-c3cc(N4CCCCC4)ncn3)cn2)cc1OC,i
CC(=O)COc1ccc2c(c1)O/C(=C\C=C\c1ccccc1)C2=O,i
COc1cc(-c2noc(-c3nn(-c4ccccc4)c(=O)c4ccccc34)n2)cc(OC)c1OC,i
COc1cccc(OCCn2c(C3CC(=O)N(c4cccc(OC)c4)C3)nc3ccccc32)c1 (centres undefined),i
CC(NC(=O)c1nnn(-c2ccc(F)cc2)c1-c1ccncc1)c1ccc(F)cc1 (centres undefined),i

Continued:
structure | GIRK2 act
COc1ccccc1CNC(=O)Cn1c(=O)nc(-c2ccccc2)c2cc(Cl)ccc21 | i
CC(C)Oc1cccc(N2CCn3c2nc2c3c(=O)n(C)c(=O)n2C)c1 | i
CC(NC(=O)c1cn(-c2ccc(Cl)cc2)nn1)c1ccc(F)cc1 (centres undefined) | i
O=C(NC1CCSC1=O)c1csc(-c2cc3ccccc3[nH]2)n1 (centres undefined) | i
CC1CCN(S(=O)(=O)c2cccn(CC(=O)N3CCCc4ccccc43)c2=O)CC1 | i
COc1ccc(C(=O)Nc2cccc(-c3csc(C)n3)c2)nn1 | i
CCOc1ccc(NC(=O)c2cn(Cc3ccc(NC(C)=O)cc3)cn2)cc1 | i
COc1cccc(-c2cc(C(=O)N3CCC(NC(=O)c4cccc(N(C)C)c4)CC3)[nH]n2)c1 | i
COCCOC(=O)C1=C(C)N(C)C(=O)NC1c1ccc2c(c1)OCO2 (centres undefined) | i
O=C(NCCC(O)c1ccccc1)Nc1ccccc1F (centres undefined) | i
CCOc1ccc(-n2c(=S)sc3c(=O)[nH]c(SCC(=O)NCc4ccccc4)nc32)cc1 | i
N#Cc1cccc(CN2N=C(C(=O)N3CCOCC3)S(=O)(=O)c3ccc(Cl)cc32)c1 | i
CSCC(C)(O)CNS(=O)(=O)c1cccc2ccccc12 (centres undefined) | i
COc1ccc(-c2nc(Cn3c(=O)n(C(C)C)c(=O)c4ccccc43)c(C)o2)cc1 | i
COc1ccccc1NC(=O)CS(=O)(=O)c1cccs1 | i
Cc1ccc(-c2noc(-c3ccc(=O)n(CC(=O)OC(C)C)n3)n2)cc1 | i
O=C(Cn1cnnn1)Nc1cc(OCc2ccccc2)ncn1 | i
Cc1cc(C)cc(NC(=O)C2CCN(c3c(C#N)cnc4ccccc34)CC2)c1 | i
O=C(CSc1nc2ccccc2o1)N1CC(c2nc(-c3ccc[nH]c3=O)no2)C1 | i
CCNC(=O)c1sccc1N(C)S(=O)(=O)c1ccc(C)c(Cl)c1 | i
COc1ccccc1NC(=O)c1nnn(Cc2nc(-c3cccc(Cl)c3)oc2C)c1C | i
Cc1cnnn1-c1ccc(C(=O)Nc2ccc(Cl)cc2Cl)cc1 | i
COc1ccc(CCNC(=O)CCc2nnc3n(CC(C)C)c(=O)c4sccc4n23)cc1OC | i
N#Cc1ccc(OC2CCN(C(=O)/C=C/c3ccccc3)CC2)nc1 | i
S=c1[nH]cc(-c2ccccc2)n1Cc1ccco1 | i
COc1ccc(/C=C/C(=O)NCc2cc(-c3ccccn3)n(C)n2)cc1OC | i
OC(COCC1CC2CCC1C2)CN1CCN(Cc2ccc3c(c2)OCO3)CC1 (centres undefined) | i
CCCCOC(=O)c1ccc(NC(=O)Cc2csc(Nc3cccc(C)n3)n2)cc1 | i
O=C1CCc2cc(S(=O)(=O)N3CCCCCC3)cc3c2N1CC3 | i
Cn1cc(C2=C(c3cccc4ccccc34)C(=O)NC2=O)c2ccccc21 | i
N#Cc1ccc(NC(=O)CSc2cc(N3CCCC3)ncn2)cc1 | i
Cc1cccc2sc(OC3CCN(C(=O)CSc4ccc(F)cc4)CC3)nc12 | i
Cc1ccc2oc(=O)c(S(=O)(=O)N3CCCCC3)cc2c1 | i
CCCC(=O)NCC#CCOc1cccc(C(F)(F)F)c1 | i
Cn1c(=O)c2cc(C(=O)Nc3ccc(C(F)(F)F)cc3)sc2n(C)c1=O | i
CCOc1ccc(CNC(=O)c2nnn(-c3ccccc3Cl)c2-c2cccnc2)cc1OCC | i
O=C(Cc1ccc(F)cc1)N1CCC(Oc2ccc(C(F)(F)F)cn2)CC1 | i
COc1ccc(C(=O)N2CCN(c3ncnc4c3nnn4-c3ccc(Cl)cc3)CC2)cc1 | i

Compound activity from PubChem BioAssay.

These rows are one share of the data, so the mix of outcomes need not match the whole.
